RGS16-Gao HTS: RGS16-Galphao interaction regulator (human); bead-based flow cytometry RGS16-Galphao binding, fluorescence; actives lie on both sides; binding response (% of control), % at 10 µM; O15492+P09471; AID 1441; 220,000 tested, 0.38% active;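 active = below 25% or above 175%, edge rows of some plates excepted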;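 note: Galphao activated by GDP with aluminum fluoride before binding; 100% = wells without compound and 0% = beads without RGS; some results beyond the cut were filed as inactive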
GALR2 agonist: activates the human galanin receptor 2; GALR2-expressing cells, agonist activation read-out; activation, %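 (tested at 5 µM)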; 140,000 tested, 0.48% active; AID 803;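 active = above mean plus 3 SD of all compounds, about 5% in these data, not always enough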;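 note: 0% = vehicle buffer wells and 100% = reference agonist at full effect; tested in CHO reporter cells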
PKD1 kinase inh: blocks activity of human protein kinase D1; inhibition, %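 (about 10 µM by stock and volumes)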; AID 797; PKD1 kinase fluorescence polarization assay; Q15139; 200,000 tested, 0.056% active;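 active = inhibition of 50% or more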;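 note: controls were vehicle for no effect and a reference inhibitor for full effect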
Target sequence (Q15139 whole entry, looked up): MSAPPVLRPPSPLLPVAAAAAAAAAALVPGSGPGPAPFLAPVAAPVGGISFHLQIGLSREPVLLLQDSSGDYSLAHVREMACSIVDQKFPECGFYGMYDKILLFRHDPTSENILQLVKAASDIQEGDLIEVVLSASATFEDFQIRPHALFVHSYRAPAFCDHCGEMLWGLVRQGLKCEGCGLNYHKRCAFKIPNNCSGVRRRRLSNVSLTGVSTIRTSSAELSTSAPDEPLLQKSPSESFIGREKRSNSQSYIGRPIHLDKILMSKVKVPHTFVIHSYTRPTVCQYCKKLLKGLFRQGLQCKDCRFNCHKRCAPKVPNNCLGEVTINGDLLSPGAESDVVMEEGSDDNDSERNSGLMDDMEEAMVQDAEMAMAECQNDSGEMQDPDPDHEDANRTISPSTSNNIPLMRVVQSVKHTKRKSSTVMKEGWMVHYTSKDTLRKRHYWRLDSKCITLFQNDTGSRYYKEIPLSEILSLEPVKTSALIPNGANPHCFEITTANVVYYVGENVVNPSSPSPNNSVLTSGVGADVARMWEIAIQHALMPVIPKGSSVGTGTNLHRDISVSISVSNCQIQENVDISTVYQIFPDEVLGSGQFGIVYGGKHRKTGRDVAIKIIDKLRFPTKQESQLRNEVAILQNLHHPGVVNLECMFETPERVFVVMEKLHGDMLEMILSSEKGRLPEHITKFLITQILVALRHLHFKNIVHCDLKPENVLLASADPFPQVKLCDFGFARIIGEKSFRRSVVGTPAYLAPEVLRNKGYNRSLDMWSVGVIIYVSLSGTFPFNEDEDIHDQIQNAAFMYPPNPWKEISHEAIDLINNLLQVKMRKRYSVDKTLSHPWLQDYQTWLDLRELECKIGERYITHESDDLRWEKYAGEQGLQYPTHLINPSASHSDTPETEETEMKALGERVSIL
HSV replic up: increases HSV replication in cells. maximum fold increase. HSV replication augmentation in cells, fold increase. 220,000 tested, 0.005% active. AID 1956;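 active = peak rise of 1.5-fold or more in the series; tested in PC3 cells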;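 note: first round at 10 µM; read as green reporter fluorescence; hits show the peak of a series up to 25 µM; 1 = signal of infected wells without compound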
INS promoter inh: TRM-6 insulin promoter activity inhibition. TRM-6 cells (human fetal islet line), insulin promoter-eGFP reporter, imaging; reporter expression induced with tamoxifen. inhibition, % at 2 µM. 130,000 tested, 0.9% active;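 active = inhibition above the mean plus 3 SD, with well images judged a real hit on visual review, cut at about 60% in these data, passing the limit was not always enough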
INS promoter inh cell count: second read-out of INS promoter inh, no call of its own (marks repeat the call); normalized cell count, %; measured here: cell count, toxicity; reference of the scale not given here;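 cells exposed to compound for 48 h; stained nuclei by imaging scaled within each plate; lower means fewer cells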
HSV replic up primary fold: further read-out of HSV replic up, marked with its call; fold increase; compound at 10 µM; measured here: primary screen fold increase 10 uM; tested in PC3 cells;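 GFP signal in the first replicate; 1 = infected wells without compound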
Active calls of the source: *. Compounds were not picked by outcome. About 1.2% of those tested had a hit in this group.

How did CC1=CC(C)C(C(=O)O)C(C(=O)O)C1 (stereo not drawn) do in these assays?
RGS16-Gao HTS: 69; GALR2 agonist: -1.3; PKD1 kinase inh: 5; HSV replic up: inactive; INS promoter inh: 22; INS promoter inh cell count: 101; HSV replic up primary fold: 0.91

Results for CC1=Nc2ccccc2/C1=C/c1c(N)n2c(S(=O)(=O)CC(C)C)nsc2nc1=O ?
RGS16-Gao HTS: 86; PKD1 kinase inh: -5; HSV replic up: inactive; INS promoter inh: 55; INS promoter inh cell count: 67; HSV replic up primary fold: 1.1

How did Cc1nn(-c2ccccc2)c(C)c1N do in these assays?
RGS16-Gao HTS: 123; PKD1 kinase inh: -4; HSV replic up: inactive; INS promoter inh: 75*; INS promoter inh cell count: 62*; HSV replic up primary fold: 1

Results for COc1ccccc1CNC(=O)C1CCCN(S(=O)(=O)c2cnc[nH]2)C1 (stereo not drawn) ?
RGS16-Gao HTS: 102; GALR2 agonist: -1.4; PKD1 kinase inh: 3; HSV replic up: inactive; HSV replic up primary fold: 1

How did Cn1c(C(=O)NCc2ccc3c(c2)OCO3)cc2sccc21 do in these assays?
RGS16-Gao HTS: 104; GALR2 agonist: -0.7; PKD1 kinase inh: -11; HSV replic up: inactive; HSV replic up primary fold: 0.86

How did Cn1nnnc1SCC(=O)Nc1cccc(S(=O)(=O)N2CCCC2)c1 do in these assays?
RGS16-Gao HTS: 104; PKD1 kinase inh: 0; HSV replic up: inactive; HSV replic up primary fold: 0.92

Results for CN(C)Cc1ccccc1Sc1ccccc1Br ?
RGS16-Gao HTS: 102; GALR2 agonist: -1.0; PKD1 kinase inh: -13; HSV replic up: inactive; INS promoter inh: 23; INS promoter inh cell count: 139; HSV replic up primary fold: 0.93

How did CC(C)CCN(C)C1CCN(S(=O)(=O)c2ccc(F)cc2)CC1 do in these assays?
RGS16-Gao HTS: 104; GALR2 agonist: -0.6; PKD1 kinase inh: 5; HSV replic up: inactive; HSV replic up primary fold: 0.78

Results for Cc1ccccc1NC(=O)CN1C(=O)S/C(=C\c2ccc(-c3cc(C(=O)O)ccc3C)o2)C1=O ?
RGS16-Gao HTS: 100; PKD1 kinase inh: 1; HSV replic up: inactive; HSV replic up primary fold: 1.2

How did COC(=O)C1C2C=CC3(CN(C4CCCC4)C(=O)C13)O2 (stereo not drawn) do in these assays?
RGS16-Gao HTS: 101; GALR2 agonist: -1.8; PKD1 kinase inh: 3; HSV replic up: inactive; INS promoter inh: -43; INS promoter inh cell count: 154; HSV replic up primary fold: 0.67

Continued (three carried over from the part before).
How did CC(C)CCN(C)C1CCN(S(=O)(=O)c2ccc(F)cc2)CC1 do in these assays?
RGS16-Gao HTS: 104; GALR2 agonist: -0.6; PKD1 kinase inh: 5; HSV replic up: inactive; HSV replic up primary fold: 0.78

Results for Cc1ccccc1NC(=O)CN1C(=O)S/C(=C\c2ccc(-c3cc(C(=O)O)ccc3C)o2)C1=O ?
RGS16-Gao HTS: 100; PKD1 kinase inh: 1; HSV replic up: inactive; HSV replic up primary fold: 1.2

How did COC(=O)C1C2C=CC3(CN(C4CCCC4)C(=O)C13)O2 (stereo not drawn) do in these assays?
RGS16-Gao HTS: 101; GALR2 agonist: -1.8; PKD1 kinase inh: 3; HSV replic up: inactive; INS promoter inh: -43; INS promoter inh cell count: 154; HSV replic up primary fold: 0.67

What do the screens show for `Cn1c(NCc2ccc(Cl)cc2)nc2ccccc21`?
RGS16-Gao HTS: 103; PKD1 kinase inh: -3; HSV replic up: inactive; INS promoter inh: -43; INS promoter inh cell count: 94; HSV replic up primary fold: 0.89

How did COc1cc2c(cc1OC)C(C)N(C(=O)c1nccnc1C(=O)O)CC2 (stereo not drawn) do in these assays?
RGS16-Gao HTS: 104; HSV replic up: inactive; HSV replic up primary fold: 0.99

How did CCOC(=O)C1=C(C)N2C(=C(C#N)[C@@H]1c1ccc(C(=O)OC)cc1)SC[C@@]2(O)C(C)(C)C do in these assays?
RGS16-Gao HTS: 100; GALR2 agonist: -0.5; PKD1 kinase inh: -11; HSV replic up: inactive; HSV replic up primary fold: 1

What do the screens show for `COc1ccc(/C=C/c2c([N+](=O)[O-])c(=O)n(C)c(=O)n2C)c(OC)c1OC`?
RGS16-Gao HTS: 113; PKD1 kinase inh: 0; HSV replic up: inactive; HSV replic up primary fold: 0.89

How did CSc1ccc(/C=N/NC(=O)CN2CCN(Cc3ccc(Cl)cc3)CC2)cc1 do in these assays?
RGS16-Gao HTS: 108; GALR2 agonist: -1.3; PKD1 kinase inh: -14; HSV replic up: inactive; INS promoter inh: 30; INS promoter inh cell count: 98; HSV replic up primary fold: 0.88

Results for COC(CNC(=O)CSCc1nc(-c2ccc(SC)cc2)oc1C)OC ?
RGS16-Gao HTS: 99; PKD1 kinase inh: -6; HSV replic up: inactive; INS promoter inh: -7; INS promoter inh cell count: 108; HSV replic up primary fold: 0.88

Results for O=C(CCSCc1ccccc1Cl)NCc1ccco1 ?
RGS16-Gao HTS: 101; PKD1 kinase inh: 0; HSV replic up: inactive; INS promoter inh: 33; INS promoter inh cell count: 128; HSV replic up primary fold: 1.2

How did CCNC(=O)/N=C1/NC(=O)C(C(C)C)O1 (stereo not drawn) do in these assays?
RGS16-Gao HTS: 101; GALR2 agonist: -2.5; PKD1 kinase inh: -14; HSV replic up: inactive; HSV replic up primary fold: 0.9

How did Cc1occc1-c1nnc(SCC(=O)NCCc2ccccc2)o1 do in these assays?
RGS16-Gao HTS: 113; PKD1 kinase inh: -1; HSV replic up: inactive; INS promoter inh: -3; INS promoter inh cell count: 98; HSV replic up primary fold: 0.97

How did Cc1ccc([N+](=O)[O-])cc1S(=O)(=O)NCc1cccnc1 do in these assays?
RGS16-Gao HTS: 100; GALR2 agonist: -0.5; PKD1 kinase inh: -8; INS promoter inh: 46; INS promoter inh cell count: 66

Results for CCc1ccc(NC(=O)N(CCN(C)C)C(C)c2cccnc2)cc1 (stereo not drawn) ?
RGS16-Gao HTS: 97; GALR2 agonist: -1.9; PKD1 kinase inh: -8; HSV replic up: inactive; HSV replic up primary fold: 0.99

How did Cc1cc(C)c(C)c(C(=O)C2OC(=O)C(C)(C)C(=O)C2(C)C)c1C (stereo not drawn) do in these assays?
RGS16-Gao HTS: 101; GALR2 agonist: -1.3; PKD1 kinase inh: 0; HSV replic up: inactive; INS promoter inh: -13; INS promoter inh cell count: 163; HSV replic up primary fold: 1.1

Results for O=C(O)c1cccc(NC(=O)C2CC(=O)N(Cc3ccccc3)C2)c1 (stereo not drawn) ?
RGS16-Gao HTS: 101; GALR2 agonist: -2.9; PKD1 kinase inh: -3; HSV replic up: inactive; INS promoter inh: 3; INS promoter inh cell count: 133; HSV replic up primary fold: 1

How did O=C(CCCSc1ccccc1)Nc1nc(-c2ccccn2)cs1 do in these assays?
RGS16-Gao HTS: 83; GALR2 agonist: -2.0; PKD1 kinase inh: -1; HSV replic up: inactive; INS promoter inh: -9; INS promoter inh cell count: 162; HSV replic up primary fold: 0.96

What do the screens show for `OCCN(Cc1ccccc1)Cc1cccc(F)c1`?
RGS16-Gao HTS: 98; GALR2 agonist: -0.8; PKD1 kinase inh: 0; HSV replic up: inactive; INS promoter inh: -81; INS promoter inh cell count: 169; HSV replic up primary fold: 0.95

How did Cc1ccc2[nH]c(=O)c(-c3nc4cc(C)ccn4c3NCc3ccco3)cc2c1 do in these assays?
RGS16-Gao HTS: 96; GALR2 agonist: -0.5; PKD1 kinase inh: -5; HSV replic up: inactive; HSV replic up primary fold: 0.73

What do the screens show for `Cc1cccc(OCC(=O)Nc2ccc(N3CCN(C(=O)c4ccco4)CC3)cc2)c1`?
RGS16-Gao HTS: 105; GALR2 agonist: -2.5; PKD1 kinase inh: -5; HSV replic up: inactive; INS promoter inh: -46; INS promoter inh cell count: 127; HSV replic up primary fold: 0.85

What do the screens show for `CCC(C)NCCCCOc1ccc(Br)cc1` (stereo not drawn)?
RGS16-Gao HTS: 105; GALR2 agonist: 0.0; PKD1 kinase inh: 1; HSV replic up: inactive; HSV replic up primary fold: 0.96

Results for CC1CC(C)(C)NC(=S)N1CC(=O)N(C)Cc1ccccc1 (stereo not drawn) ?
RGS16-Gao HTS: 120; GALR2 agonist: -0.7; PKD1 kinase inh: -8; HSV replic up: inactive; INS promoter inh: 0; INS promoter inh cell count: 24; HSV replic up primary fold: 1

Results for CCN(CC(=O)Nc1cccc(OC)c1)C(=O)C1CCN(C(=O)Nc2ccccc2)CC1 ?
RGS16-Gao HTS: 93; GALR2 agonist: -1.5; PKD1 kinase inh: -12; HSV replic up: inactive; HSV replic up primary fold: 0.81

Results for CC(C)COc1ccc(-c2nnc(-c3ccco3)o2)cc1 ?
RGS16-Gao HTS: 103; GALR2 agonist: 0.0; PKD1 kinase inh: -14; HSV replic up: inactive; INS promoter inh: 4; INS promoter inh cell count: 97; HSV replic up primary fold: 0.99

What do the screens show for `COc1ccc(NC(=O)c2nnn(Cc3cccc(F)c3)c2N)c(OC)c1`?
RGS16-Gao HTS: 107; GALR2 agonist: -0.3; PKD1 kinase inh: -5; HSV replic up: inactive; HSV replic up primary fold: 0.88

Results for CC1CC(=O)Nc2ccccc2S1(=O)=O (stereo not drawn) ?
RGS16-Gao HTS: 81; GALR2 agonist: -0.8; PKD1 kinase inh: -9; HSV replic up: inactive; HSV replic up primary fold: 0.93

How did O=C(CCCCCN1C(=O)c2ccccc2C1=O)NC1CCCC1 do in these assays?
RGS16-Gao HTS: 104; GALR2 agonist: -0.6; PKD1 kinase inh: 14; HSV replic up: inactive; HSV replic up primary fold: 1.2

Results for COc1cccc(/C=C/C(=O)Nc2ccc(OC)nc2)c1 ?
RGS16-Gao HTS: 101; GALR2 agonist: 0.2; PKD1 kinase inh: -8; HSV replic up: inactive; INS promoter inh: 23; INS promoter inh cell count: 121; HSV replic up primary fold: 0.98

What do the screens show for `COc1ccc(C2C(C(=O)c3sc(C)nc3C)=C(O)C(=O)N2CCN(C)C)cc1OC` (stereo not drawn)?
RGS16-Gao HTS: 103; GALR2 agonist: -0.5; PKD1 kinase inh: -12; HSV replic up: inactive; INS promoter inh: 19; INS promoter inh cell count: 61; HSV replic up primary fold: 1.1

Results for CCn1c(SCC(=O)c2c[nH]c3ccccc23)nnc1-c1cccs1 ?
RGS16-Gao HTS: 106; GALR2 agonist: -1.7; PKD1 kinase inh: 2; HSV replic up: inactive; INS promoter inh: -315; INS promoter inh cell count: 113; HSV replic up primary fold: 0.91

What do the screens show for `COc1ccc(Cc2nnc(Nc3ccc(C)cc3)o2)cc1OC`?
RGS16-Gao HTS: 101; HSV replic up: inactive; HSV replic up primary fold: 0.87

Results for CCc1cccc(NC(=O)Cn2c(=O)oc3cc(S(=O)(=O)N4CCOCC4)ccc32)c1 ?
RGS16-Gao HTS: 104; GALR2 agonist: -2.4; PKD1 kinase inh: 9; HSV replic up: inactive; HSV replic up primary fold: 0.91

How did CN(C)C(=O)CSc1nnc(-c2ccncc2)n1Cc1ccco1 do in these assays?
RGS16-Gao HTS: 106; PKD1 kinase inh: -7; HSV replic up: inactive; INS promoter inh: -58; INS promoter inh cell count: 105; HSV replic up primary fold: 0.96

Results for Cc1cc(C)c(NC(=O)Cn2c(=O)n(-c3ccc(CC(=O)NCC4CCCO4)cc3)c(=O)c3ccccc32)c(C)c1 (stereo not drawn) ?
RGS16-Gao HTS: 106; PKD1 kinase inh: 1; HSV replic up: inactive; INS promoter inh: -13; INS promoter inh cell count: 113; HSV replic up primary fold: 0.96

What do the screens show for `CC1CC(C)CN(CCCNC(=O)c2ccc3c(SCC(=O)O)c4c(nc3c2)CCC4)C1` (stereo not drawn)?
RGS16-Gao HTS: 102; HSV replic up: inactive; HSV replic up primary fold: 0.94

How did CCN(CCn1cccn1)C(=O)c1cc(COc2ccc(F)cc2Cl)on1 do in these assays?
RGS16-Gao HTS: 93; PKD1 kinase inh: -5; HSV replic up: inactive; HSV replic up primary fold: 0.97

Results for Cc1ccc(S(=O)(=O)N(C)C)cc1NC(=S)N(CCC#N)Cc1cccnc1 ?
RGS16-Gao HTS: 103; PKD1 kinase inh: -4; HSV replic up: inactive; INS promoter inh: -20; INS promoter inh cell count: 112; HSV replic up primary fold: 1.1

How did CN(C)CCNC(=O)Nc1cccc(Cl)c1Cl do in these assays?
GALR2 agonist: -2.3; PKD1 kinase inh: 4; HSV replic up: inactive; HSV replic up primary fold: 0.88

How did O=C(Nc1cc(C(F)(F)F)ccc1Cl)C1CCN(c2nnc(-n3cccc3)s2)CC1 do in these assays?
RGS16-Gao HTS: 103; GALR2 agonist: 3.2; PKD1 kinase inh: -8; HSV replic up: inactive; INS promoter inh: -77; INS promoter inh cell count: 65; HSV replic up primary fold: 1.1

What do the screens show for `O=C(c1cc2sccc2n1Cc1ccc(F)cc1)N1CCc2ccccc21`?
RGS16-Gao HTS: 128; GALR2 agonist: -1.7; PKD1 kinase inh: -3; HSV replic up: inactive; INS promoter inh: 44; INS promoter inh cell count: 141; HSV replic up primary fold: 1

Screens: PubChem, several laboratories
